12-LOX inh: ALOX12 (human) lipoxygenase inhibition; Potency, µM (doses to about 108 µM), for the others: top-dose activity change, negative = inhibition, most hits filed as inhibitors; purified 12hLO, xylenol orange hydroperoxide absorbance; 1.1% of 580,000 active; P18054; note: % is set by controls: 0 for no effect and ±100 for the full control effect
Target sequence (P18054 whole entry, looked up): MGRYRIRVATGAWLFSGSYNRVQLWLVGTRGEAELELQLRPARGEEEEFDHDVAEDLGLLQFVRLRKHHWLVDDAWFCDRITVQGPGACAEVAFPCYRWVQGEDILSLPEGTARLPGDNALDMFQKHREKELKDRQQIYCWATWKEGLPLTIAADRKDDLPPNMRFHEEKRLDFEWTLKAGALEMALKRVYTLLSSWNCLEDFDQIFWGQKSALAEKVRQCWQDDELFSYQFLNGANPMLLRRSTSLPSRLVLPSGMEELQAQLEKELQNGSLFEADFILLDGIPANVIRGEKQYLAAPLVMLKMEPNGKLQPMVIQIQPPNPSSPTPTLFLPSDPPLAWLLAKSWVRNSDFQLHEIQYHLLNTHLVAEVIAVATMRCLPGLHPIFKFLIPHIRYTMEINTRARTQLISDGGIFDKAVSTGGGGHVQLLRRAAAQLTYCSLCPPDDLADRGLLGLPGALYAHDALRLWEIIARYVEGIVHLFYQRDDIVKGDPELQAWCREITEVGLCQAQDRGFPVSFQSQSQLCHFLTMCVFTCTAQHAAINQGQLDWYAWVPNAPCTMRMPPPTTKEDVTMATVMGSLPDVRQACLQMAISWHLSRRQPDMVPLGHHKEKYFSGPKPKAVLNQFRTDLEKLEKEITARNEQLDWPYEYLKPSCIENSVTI
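Purified human 12hLO at 150 nM in 25 mM Hepes, 0.01% Triton X-100, pH 7.0, preincubated 15 min at room temperature with compound. Reaction started with 40 uM arachidonic acid, 30 min at room temperature. Hydroperoxide measured by Fe-xylenol orange, 573/405 nm absorbance ratio.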
Vif-APOBEC3F blk: Vif-A3F binding inhibition; AID 602313; Potency, µM (doses to about 46.1 µM), for inactives: at the highest dose activity, negative = active; 0.2% of 390,000 active; HeLa A3F-eYFP + Vif (tagged APOBEC3F with the HIV-1 protein that degrades it), YFP fluorescence increase; note: % of control where 0% means no effect; nearly all actives have a fitted effect of over 65% in size
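Fluorescence increase (Ex 488/Em 500-530) after overnight compound treatment at 37 deg C flags inhibition of Vif-driven A3F-eYFP loss in stable HeLa A3F-eYFP/Vif cells seeded overnight beforehand.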
TrxR1 inh: inhibitors of rat thioredoxin reductase 1. O89049. recombinant rTrxR1, NADPH fluorescence consumption, selenite substrate. Potency, µM (series often up to 114 µM), inactives show at the top dose activity change, negative = inhibition, actives largely listed as inhibitors. 1% of 390,000 active; note: % is set by controls: 0 for no effect and ±100 for the full control effect; nearly all actives have a fitted effect of over 65% in size
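Rat TrxR1 (90 nM in the dispensed reagent) was pre-reduced with 400 uM NADPH for 5 min at room temperature, then incubated with compound for 15 min. After 400 uM selenite was added, NADPH fluorescence (Ex 340/Em 450 nm) was followed for 8 min.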
Vif-A3G inh: Vif-A3G binding inhibition | Q9HC16 | HeLa A3G-eYFP + Vif (tagged APOBEC3G with the HIV-1 protein that degrades it), YFP fluorescence, overnight | Potency, µM (series often up to 46.1 µM), for the others: top-dose activity, negative = active, hits mostly inhibitors | 0.076% of 410,000 active;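 note: % is set by controls: 0 for no effect and ±100 for the full control effect; nearly all actives have a fitted effect of over 60% in size; hits raise eYFP signal because A3G escapes Vif-driven loss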
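Read-out is eYFP fluorescence (Ex 488/Em 500-530) from Vif-expressing HeLa A3G-eYFP cells; more signal means A3G escaped Vif-mediated degradation. Cells plated overnight, compound pinned in, incubated overnight at 37 deg C.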
TrxR1 substrate: is turned over as a substrate by rat TrxR1. 0.01% of 390,000 active. O89049. Potency, µM (doses to about 114 µM), inactives show at the highest dose activity change, negative = substrate turnover. purified TrxR1 substrate turnover, NADPH consumption readout. AID 588456; note: % is set by controls: 0 for no effect and ±100 for the full control effect; nearly all actives have a fitted effect of over 50% in size
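Rat TrxR1, dispensed at 90 nM, was prereduced with 400 uM NADPH (final) for 5 min at ~22 deg C, then incubated with compound 15 min before 400 uM selenite. A first-read NADPH fluorescence drop versus no-compound background flagged substrates.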
IDH1 R132H inh: blocks human mutant IDH1 R132H enzyme | O75874 | IDH1-R132H enzyme, NADPH consumption, diaphorase/resazurin fluorescence | Potency, µM (highest dose often 76.6 µM), for inactives: top-dose activity change, negative = inhibition, actives largely listed as inhibitors | 0.093% of 390,000 active | AID 602179; note: % is set by controls: 0 for no effect and ±100 for the full control effect; nearly all actives have a fitted effect of over 65% in size
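IDH1-R132H (0.5 ug/mL dispensed) in pH 7.5 Tris buffer was preincubated 30 min with compound, then given a substrate mix of 0.016 mM NADPH and 2 mM alpha-KG for 80 min at room temperature; remaining NADPH was read by diaphorase/resazurin fluorescence.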
RXFP1 ag: activates the human relaxin receptor RXFP1; Q9HBX9; HEK293T-RXFP1 cAMP TR-FRET, 30 min; response scale: percent of porcine relaxin response, buffer zero; Potency, µM (series often up to 57.5 µM), without a hit: top-dose activation, hits mostly activators; 0.3% of 370,000 active; AID 2676; note: % is set by controls: 0 for no effect and ±100 for the full control effect; nearly all actives have a fitted effect of over 60% in size; many of its hits are not listed in these tables
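HEK293T cells stably expressing RXFP1 were pretreated with the PDE4 inhibitor Ro 20174, exposed to compounds for 30 min at 37C, lysed, and cAMP was read by TR-FRET. Data normalized to buffer (basal) and 29 nM porcine relaxin (100%).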
RGS4 inh: inhibitors of human regulator of G protein signaling 4. P49798. 0.039% of 390,000 active. AID 504845. Potency, µM (series often up to 114 µM), without a hit: at the top dose activity change, negative = inhibition, usual class: inhibitors. Transcreener GDP fluorescence polarization, RGS4-accelerated GTP hydrolysis; note: % is set by controls: 0 for no effect and ±100 for the full control effect; nearly all actives have a fitted effect of over 75% in size; some results filed as inactive show a strong effect at the top dose
Target sequence (P49798 whole entry, looked up): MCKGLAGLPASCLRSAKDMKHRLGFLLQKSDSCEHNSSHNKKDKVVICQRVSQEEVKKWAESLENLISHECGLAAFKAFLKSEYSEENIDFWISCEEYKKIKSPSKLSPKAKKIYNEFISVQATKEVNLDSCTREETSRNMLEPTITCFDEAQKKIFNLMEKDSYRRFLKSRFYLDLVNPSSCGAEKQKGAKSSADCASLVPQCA
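MLSMR compounds (23 nl, pin-transferred) preincubated 10 min at room temperature with a 500nM (2x) first reagent, then RGS4 at 900nM (2x) plus Transcreener GDP mix added; fluorescence polarization (620/688 nm) read before and after 90 min at 30 °C.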
Active calls of the source: *; u = inconclusive; x = not tested or not shown; [ ] = another dose, or the depositor's remark. Calls come from the whole dose curve; as a rule, active = well fitted curve in the direction sought with a large enough effect; inconclusive = small, poorly fitted or top-dose-only effect, or another doubt; inactive = no such curve, though single readings can be large; an effect the other way counts as inactive or inconclusive. Potency is the fitted concentration of half-maximal effect. Only part of the results is shown, so the mix of outcomes need not match the whole.

No.	Molecule	12-LOX inh	Vif-APOBEC3F blk	TrxR1 inh	Vif-A3G inh	TrxR1 substrate	IDH1 R132H inh	RXFP1 ag	RGS4 inh
1	Cc1c(OC(C)C(=O)N2C[C@H]3C[C@@H](C2)c2cccc(=O)n2C3)ccc2c3c(c(=O)oc12)CCC3 (stereo partly specified)	-6%	-2%	-28%	1%	4%	-6%	3.8%	6%
2	CCc1sc(C(=O)Nc2ccc(OC)c(S(=O)(=O)N3CCOCC3)c2)cc1C	368%[activator]	0%	20%	5%	0%	-9%	x	1%
3	Cc1onc(-c2ccccc2)c1C(=O)Nc1sccc1C#N	9%	-3%	-1%	6%	0%	-1%	0.7%	-32%
4	O=C(O)c1c2c(nc3ccccc13)/C(=C/c1ccc(O)cc1)CC2	u	-2%	u	-4%	24%	18%	18%	15%
5	Cn1c(=O)c2c(nc(CN3CCc4ccccc4C3)n2CC(=O)c2ccccc2)n(C)c1=O	-3%	-11%	-12%	-6%	3%	-3%	x	3%
6	CC(=O)Cc1nsc(NC(=O)c2ccc(-c3cccc(C(F)(F)F)c3)o2)n1	16%	-4%	-12%	u	-11%	7%	0.1%	-1%
7	COc1cccc(OC)c1C(=O)Nc1ccc(Br)c(C(=O)c2ccccc2)c1	-2%	0%	15%	-1%	-8%	-2%	0.5%	-3%
8	CCOc1cc(Br)c(CC(=O)O)cc1OCC	17%	-14%	9%	-4%	0%	-8%	6.7%	16%
9	CC(C)C(C(=O)N1CCOCC1)N1C(=O)c2ccccc2C1=O (stereo unspecified)	2%	-14%	1%	0%	0%	-6%	-1.4%	-1%
10	O=S(=O)(Nc1nc2n(n1)C(c1ccc(F)cc1)C=C(c1ccc(Cl)cc1)N2)c1ccccc1 (stereo unspecified)	12%	-18%	2%	-2%	-5%	0%	-0.3%	15%
11	CCC(=O)c1ccc(OCC(O)CN2CCN(c3ccccn3)CC2)cc1 (stereo unspecified)	23%	-5%	14%	1%	-1%	-13%	-1.1%	28%
12	CC(C)(C)Nc1nc(-c2ccc3c(c2)CCN3C(=O)C2CC2)cs1	-29%	3%	2%	-14%	-6%	20%	5.5%	-19%
13	CC(C)OCCCNC(=O)COCC(=O)Nc1ccc(OCCc2ccccc2)cc1	15%	0%	30%	0%	7%	-2%	1.6%	8%
14	Cc1ccccc1NC(=O)c1ccc(C)c(S(=O)(=O)N2CCN(C)CC2)c1	-10%	-1%	14%	-2%	4%	2%	0.1%	-7%
15	CC1=C(C(=O)Nc2cccnc2)C(c2ccccc2)n2nc(-c3ccc(O)cc3)nc2N1 (stereo unspecified)	-8%	-1%	5%	-7%	0%	-1%	6.8%	8%
16	Cc1ccc(CNC(=O)C(CC(C)C)N2Cc3ccccc3C2=O)cc1 (stereo unspecified)	-14%	6%	5%	-2%	1%	-3%	0.1%	-19%
17	Oc1ccc(N2CCN(C(c3ccccn3)c3nnnn3C3CCCC3)CC2)cc1 (stereo unspecified)	u	-8%	17%	-1%	7%	3%	3.0%	-3%
18	COc1cc2cnc(-c3ccccc3)c(-c3ccc([N+](=O)[O-])cc3)c2cc1OC	-8%	-2%	10%[57.1 µM]	1%	4%[57.1 µM]	u	2.4%	37%
19	CCC(NS(=O)(=O)c1c(C)[nH]c(=O)[nH]c1=O)C12CC3CC(CC(C3)C1)C2 (stereo unspecified)	0%[57.4 µM]	4%	-5%[57.1 µM]	3%	-5%[57.1 µM]	-4%	-0.4%	20%
20	CC(=O)Nc1cccc(NC(=O)C(C)N2c3cccc4cccc(c34)S2(=O)=O)c1 (stereo unspecified)	-8%	9%	35%[57.1 µM]	-4%	8%[57.1 µM]	3%	5.0%	-7%
21	O=C(Nc1nccs1)c1cn2ccccc2n1	5%	4%	22%	-1%	11%	1%	3.7%	-5%
22	CC1CCCN(Cc2nc3c(c(=O)n(C)c(=O)n3C)n2CCc2ccccc2)C1 (stereo unspecified)	11%	3%	-8%[57.1 µM]	1%	8%[57.1 µM]	-3%	0.5%	-1%
23	COc1ccc(Br)cc1C(=O)Nc1ccccc1N1CCCC1	u	-8%	23%	1%	6%	5%	x	-20%
24	Cc1ccc(S(=O)(=O)N2CCN(C(=O)COC(=O)/C=C/c3cccc(Cl)c3)CC2)c(C)c1	343%[activator]	4%	16%	-1%	-1%	0%	x	0%
25	CCOCCCn1c(=S)[nH]c2cc(C(=O)NCc3ccc(F)cc3)ccc2c1=O	7%	-11%	18%	2%	-1%	-4%	u	29%
26	Cc1[nH]n2c(=O)c3c(nc2c1-c1ccccc1)CCC3	u	-5%	13%[57.1 µM]	-1%	11%[57.1 µM]	12%	-2.4%	-26%
27	O=C(Nc1nnc(CCN2CCCCC2)s1)c1ccc(Cl)cc1Cl	u	1%	20%	-1%	2%	16%	-0.4%	-4%
28	CC(C)(C)c1cc(=O)n(-c2ccccc2)[nH]1	-29%	3%	u	-18%	u	20%	-0.3%	u
29	COc1cccc(C2C(C(=O)Nc3ccccc3)=C(C)Nc3nc(-c4ccccc4)nn32)c1 (stereo unspecified)	-22%	-5%	3%	-7%	-7%	0%	7.1%	9%
30	COc1cc2ccccc2ccc1=NO	10%	-3%	3%[2.29 µM]	-1%	-6%[57.1 µM]	9%	x	-5%
31	OC(CN1CCc2ccccc2C1)c1ccccc1 (stereo unspecified)	0%	2%	23%	0%	-1%	-2%	0.7%	8%
32	C[C@H](NC(=O)c1nc[nH]c1C(=O)NCC(=O)OC(C)(C)C)C(=O)OCc1ccccc1	-7%	0%	2%	6%	-7%	-1%	0.6%	-16%
33	COc1ccc(NC(=O)c2cc3c(=O)n4ccccc4nc3n2C)c(OC)c1	31%[activator]	-1%	8%	1%	-4%	-9%	6.3%	-12%
34	CCO/C=C1/C(=O)N(Cc2ccccc2)C(=O)c2ccccc21	-24%	1%	-18%	-4%	-9%	5%	-0.5%	7%
35	N/C(=N\OC(=O)c1ccco1)c1cccc(Br)c1	-15%	-22%	15%	-11%	-7%	7%	0.3%	36%
36	CCC(=O)/C=C1/Sc2ccc(OC)cc2N1CCO	-16%	u	12%[57.1 µM]	0%	8%[57.1 µM]	-1%	3.4%	u
37	O=C1OC(c2cccs2)=N/C1=C\c1ccc(-c2ccccc2Cl)o1	u	-15%	u	u	-9%	6%	0.6%	4%
38	Cc1oc2ncnc(N3CCOCC3)c2c1C(=O)N(Cc1ccccc1)C(C)C	-8%	-9%	1%	-8%	-5%	-13%	-1.0%	11%
39	Cc1cccc(-c2ccc(C=Nc3c(C)n(C)n(-c4ccccc4)c3=O)o2)c1	0%	1%	-4%[57.1 µM]	0%	-8%[57.1 µM]	1%	5.8%	-23%[11.4 µM]
40	Cc1ccc(S(=O)(=O)N2CCC(C(=O)Nc3ccc(S(=O)(=O)N4CCOCC4)cc3)CC2)cc1	7%	-27%	2%	-1%	-7%	5%	x	-7%
41	COC(=O)CCC(=O)OC1(C)C(=O)C=C2C=C(C3CC3)N(C3CCCCC3)C=C2C1=O (stereo unspecified)	-27%	4%	-3%	3%	-17%	-2%	0.4%	3%
42	CCOC(=O)CSc1nnc(-c2ccc(OC)cc2)o1	u	2%	-9%	-2%	0%	-12%	7.7%	-17%
43	CN(C)CCCNc1cc(Cl)c(S(=O)(=O)N2CCCCC2)cc1C(=O)O	-37%	-12%	29%	1%	8%	1%	1.0%	35%
44	COc1cccc2cc(-c3nc4sc5c(c4c(=O)[nH]3)CCC(C(C)(C)C)C5)c(=O)oc12 (stereo unspecified)	-26%	-4%	53%[11.4 µM]	6%	18%[11.4 µM]	-12%	-0.1%	14%
45	COc1ccc(CC(=O)c2cc(OC)c(OC)cc2CC(=O)O)cc1OC	137%[activator]	-1%	-3%	0%	-5%	1%	2.6%	9%
46	Cc1ccc(C)c(NC(=O)C(CC(C)C)N2Cc3ccccc3C2=O)c1 (stereo unspecified)	u	1%	6%	-4%	2%	-5%	3.5%	-34%
47	c1ccc2c(c1)CCCN2Cc1nnnn1C1CCCC1	-22%	1%	-19%	1%	-12%	0%	-1.3%	-8%
48	CCCCn1ccc(=O)c2c(C(F)(F)F)nccc21	14%	1%	10%[57.1 µM]	6%	-14%	2%	3.9%	12%
49	CCCn1nnc(NC(=O)c2ccc(-c3cc(Cl)ccc3Cl)o2)n1	1%	-9%	30%	-9%	6%	6%	2.3%	-12%
50	COc1ccc(C2NC(c3ccc(OC)c(OC)c3OC)C(C)C(=O)C2C)c(OC)c1OC (stereo unspecified)	-4%[57.4 µM]	0%	-1%	-1%	-6%	-3%	2.0%	-4%
51	O=C(O)c1c2c(nc3ccccc13)/C(=C/c1ccc(OC(F)F)cc1)CCC2	u	-7%	-10%	-2%	4%	-9%	-1.1%	-4%
52	Cn1c(C(=O)NC2CCCCC2)cc2c(=O)n3ccccc3nc21	-1%	5%	2%	0%	6%	19%	29%	12%
53	C/C(=N\NC(=O)c1cccnc1)c1c(O)cc(C)oc1=O	0%	0%	-7%	3%	-8%	-1%	2.3%	8%
54	CCOC(=O)c1cc(C#N)c(N2CCOCC2)nc1-c1ccccc1	-1%	0%	9%[57.1 µM]	-10%	13%	4%	5.8%	-11%
55	O=C(NCCc1ccccc1)c1nc2nc(-c3cccs3)cc(C(F)(F)F)n2n1	4%	-15%	293%[activator][57.1 µM]	-5%	269%[activator][57.1 µM]	-1%	-0.3%	-15%
56	O=C(Nc1ccc(N2CCOCC2)cc1N1CCOCC1)c1ncoc1-c1cccc(F)c1	-17%	-3%	14%[57.1 µM]	-2%	2%[57.1 µM]	0%	3.0%	-2%

Screening data from PubChem BioAssay.
